GLA inh pH 4.5: qHTS Assay for Inhibitors of Human alpha-Galactosidase at pH 4.5; purified enzyme, 4-MU-alpha-Gal fluorescence, pH 4.5; activity change, negative = inhibition, % at 105 µM; 230,000 tested, under 10 active; inconclusive = small, poorly fitted or top-dose-only inhibition, or a rising curve; inactive = flat fitted curve, though single readings scatter; no compound was filed as active;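 further: 0% = full activity with enzyme and -100% = basal without enzyme; dose as in the result columns while the protocol names 77 µM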
Target sequence (P06280 whole entry, looked up): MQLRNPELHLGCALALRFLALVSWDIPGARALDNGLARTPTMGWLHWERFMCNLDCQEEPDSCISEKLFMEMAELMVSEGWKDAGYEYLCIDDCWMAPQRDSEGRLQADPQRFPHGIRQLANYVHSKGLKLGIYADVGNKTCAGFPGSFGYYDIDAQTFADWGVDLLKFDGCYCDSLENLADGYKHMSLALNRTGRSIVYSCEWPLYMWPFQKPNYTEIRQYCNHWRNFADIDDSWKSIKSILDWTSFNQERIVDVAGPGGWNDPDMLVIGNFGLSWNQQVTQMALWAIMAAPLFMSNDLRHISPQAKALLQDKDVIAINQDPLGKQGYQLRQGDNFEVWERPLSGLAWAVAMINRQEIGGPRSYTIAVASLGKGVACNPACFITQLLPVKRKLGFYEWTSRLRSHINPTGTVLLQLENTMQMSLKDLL
Rango release inh: qHTS Assay for Inhibitors of RanGTP induced Rango (Ran-regulated importin-beta cargo) - Importin beta complex dissociation. Snurportin-1 (Homo sapiens) + GTP-binding nuclear protein Ran (Homo sapiens) + Importin …. Biochemical FRET Rango-importin beta, RanGTP-induced dissociation. Potency, µM (doses to about 46.1 µM), for the others: top-dose activity change, negative = inhibition. 340,000 tested, 0.071% active; active means falling FRET ratio curve, often poorly fitted, with flat reads before Ran was added; inconclusive means other falling curves, or compound fluorescence or quenching; inactive means flat or rising ratio curve;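 further: potency means the concentration at half of the fitted maximal effect; % of control where 0% means no effect; nearly all actives have a fitted effect of over 45% in size; -100% = wells without RanGTP and RCC1; the record marks most hits as doubtful in a second field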
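Rango FRET biosensor (snurportin-1 IBB flanked by N-terminal EYFP and C-terminal CFP10) at 0.1 uM, with 0.25 uM importin beta in PBS, 1mM DTT, 0.02% Tween-20, 0.1% BSA. 0.6 uM Ran, 2mM GTP and 0.2 uM RCC1 were then added for 45 min at room temperature. Inhibition read as loss of FRET rise.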
miR-21 reporter: qHTS Assay for Modulators of miRNAs and/orActivators of miR-21 | HeLa miR-21 FLuc reporter, luciferase, 48 h | Potency, µM (highest dose often 38.3 µM), inactives show at the top dose reporter change, positive = more light | 340,000 tested, under 10 active; active = well fitted rising curve with a large enough effect; inconclusive = small, poorly fitted or top-dose-only effect; inactive = no such curve, though single readings can be large or run the other way;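 further: % of control where 0% means no effect; miR-21 action dims this reporter so a rising signal means less miR-21 action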
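Luminescence from a firefly luciferase reporter carrying a miR-21 binding site downstream, stably expressed under a CMV promoter in HeLa cells that make miR-21 endogenously, reports miRNA modulation after 48 h compound exposure up to approximately 40uM final.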
Rango-impB inh: qHTS Assay for Inhibitors of Rango (Ran-regulated importin-beta cargo) - Importin beta complex formation | Rango CFP/YFP FRET sensor + importin beta, 45 min | Potency, µM (highest dose often 92.2 µM), for the others: at the top dose inhibition of complex formation | 340,000 tested, 0.031% active; active = rising FRET ratio curve, often small or poorly fitted; inconclusive = mostly compound fluorescence or quenching in the first reads; inactive = flat curves in all reads;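 further: potency means the concentration at half of the fitted maximal effect; 0% = DMSO wells and 100% = buffer wells lacking importin beta; nearly all actives have a fitted effect of over 15% in size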
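FRET biosensor (snurportin 1 IBB flanked by EYFP and cerulean), 50 nM, with compound 5 min, then 0.125 microM importin beta in PBS, 1 mM DTT, 0.02% Tween-20, 0.1% BSA. CFP/YFP ratio read after 45 min at room temperature; pre-read flags interference.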
* hit, by the source's call; ? = inconclusive; / = not tested or not shown; & = joins results of further samples; [ ] = remark or other dose. These rows are one share of the data, so the mix of outcomes need not match the whole.

SMILES	GLA inh pH 4.5	Rango release inh	miR-21 reporter	Rango-impB inh
COc1ccc(CC/C(C)=N\NC(N)=O)cc1	-1	6%	-17%	-1.4%
COc1cc(C)c(Cl)cc1S(=O)(=O)n1ccnc1	5	11%	-8%	1.4%
COC(=O)Cn1c(=NC(=O)CSCC(=O)Nc2cc(C)on2)sc2cc(C(=O)OC)ccc21	-7	0%	-1%	?
C#Cc1ccc([C@@H]2C=C(C(=O)NC3CC3)O[C@H](OCc3ccc(CO)cc3)C2)cc1	/	-8%	/	0.2%
C=CCOc1ccc(C2/C(=C(/O)c3ccc4c(c3)CC(C)O4)C(=O)C(=O)N2CCCN2CCOCC2)cc1 (centres undefined)	/	-10%	-7%	0.0%
S=c1sc2c(N3CCN(Cc4ccccc4)CC3)ncnc2n1-c1ccccc1	-3	0%	3%	-0.6%
CCOc1cnc(-c2ccc(OC)cc2)o1	6	2%	-54%	0.1%
COc1ccc2[nH]cc(/C=C/C(=O)c3ccccc3)c2c1	0	?	-23%	?
CCn1c(=O)c2ccccc2n2c(SCC(N)=O)nnc12	/	5%	-3%	1.3%
NC(=O)/C(N=Nc1ccccc1)=N/Nc1ccccc1	/	18%	/	-3.7%
CCOc1ccc2[nH]c3c(c2c1)CNCC3	/	-9%	0%	3.2%
CC(C)c1cc(Br)ccc1OCCCN1C(=O)NC(C)(C)C1=O	-12	-11%	14%	0.9%
N#Cc1ccc(-c2cccnc2)nc1SCc1ccc(Cl)c(Cl)c1	-1	-7%	-12%	-1.3%
COCc1nnc(NS(=O)(=O)c2ccc([N+](=O)[O-])cc2)s1	-3	-14%	1%	6.0%
Cc1ccc(OCC(=O)Nc2c(C)ccc3nsnc23)cc1	/	4%	0%	-3.1%
COc1ccc(C(=O)Nc2ccccc2C(=O)Nc2cccc(C)n2)cc1	/	-15%	-18%	-0.2%
CCN(C1CCCCC1)S(=O)(=O)c1ccc(S(=O)(=O)N(CC(=O)Nc2ccccc2)C2CC2)cc1	1	-7%	-3%	0.4%
Cc1ccc(Cn2c3ccccc3c3cn[nH]c(=O)c32)cc1	13	30%	2%	0.2%
CC(=O)Oc1ccc(-c2cccc(C(=O)NCCO)c2)cc1	3	-9%	-10%	2.1%
c1ccc(-c2ccccc2OCCN2CCOCC2)cc1	2	1%	-2%	4.4%
Oc1[nH]c2ccc(Br)cc2c1N=NC(=S)Nc1ccc(F)cc1	-6	6%	28%	-2.1%
COC(=O)CSc1ncc(C#N)c(N)n1	1	-26%	0%	?
CCn1nc(C(=O)Nc2nc3ccccc3[nH]2)c2ccccc2c1=O	6	-4%	-9%	-0.5%
CN(Cc1ccccc1)C(=O)COC(=O)c1ccc2ccccc2n1	7	-2%	0%	-0.5%
CN1CCN(S(=O)(=O)c2cccc(C(=O)Nc3cccc([N+](=O)[O-])c3)c2)CC1	/	20%	/	2.9%
Next section.
SMILES	GLA inh pH 4.5	Rango release inh	miR-21 reporter	Rango-impB inh
COc1cc(C(CC(=O)Nc2cc(C)ccn2)N2Cc3ccccc3C2=O)cc(OC)c1OC (centres undefined)	/	-9%	0%&-6%	-2.9%
COc1ccc(NC(=S)NNC(=O)CNc2ccc(Cl)cc2)cc1	3	-7%	1%	-1.4%
CC(CP(=O)(O)O)NC(=O)Cc1ccccc1 (centres undefined)	-12	5%	0%	?
CCC1(c2ccccc2)NC(=O)N(CC(=O)Nc2ccc(S(=O)(=O)NC3=NCCCCC3)cc2)C1=O (centres undefined)	/	-8%	/	4.0%
O=C(CNC(=S)N(CCCN1CCOCC1)Cc1cccs1)NCc1ccccc1	/	5%	-4%	-4.2%
CCc1nnc(NC(=O)c2nc(Cl)ccc2Cl)s1	/	-27%	-4%	7.2%
COC(=O)C1=C(C)N(Cc2ccccc2)C(=NCc2cc(OC)c(OC)c(OC)c2)N[C@H]1CCc1ccccc1	/	-10%	18%	?
O=C(O)c1cc(C(=O)O)c(-c2ccccc2)c(C(=O)O)c1	-4	-7%	2%	-4.3%
O=C(c1ccco1)n1nc(-c2ccco2)nc1SCc1ccccc1	1	4%	-47%	1.3%
CCc1nc(N2CCC(C)CC2)c2oc3ccccc3c2n1	-3	6%	-1%	?
CCN1CCN(C(CNS(=O)(=O)c2ccc(Cl)cc2)c2ccccc2)CC1 (centres undefined)	/	3%	-3%	3.5%
COc1ccc(C(=O)N2CCCc3ccccc32)cc1	-18	1%	-19%	-2.5%
O=C(O)C1(Nc2ccccc2)CCCC1	/	-20%	/	1.5%
CCOc1ccc(C2C(C(=O)Nc3cc(C)on3)c3ccccc3C(=O)N2CCN2CCOCC2)cc1 (centres undefined)	-2	-3%	-3%	4.0%
COc1cc(OC)cc(-c2c(-c3cccs3)c3cc(-c4ccc(OC)cc4F)ccc3n2C)c1	/	?	/	0.2%
CCC(c1nnnn1C(C)C)N1CCN(C2CCCC2)CC1 (centres undefined)	0	-3%	-1%	-8.9%
O=C(CN1C(=O)NC2(CCCC2)C1=O)N1CCN(Cc2ccccc2)CC1	/	12%	/	-2.0%
Cc1ccc(-n2nc3c(c2NC(=O)c2ccco2)CS(=O)(=O)C3)c(C)c1	/	-23%	-3%	2.4%
COC(=O)CNC(=O)c1ccc(NS(=O)(=O)c2cc([N+](=O)[O-])ccc2Cl)cc1	0	27%	-1%	-4.1%
COc1ccc2c(c1)c(C(=O)O)c(C)n2-c1ccccc1	-1	2%	-1%	0.2%
Cc1cccc(Nc2nc(N)nc(CSC(=S)N3CCOCC3)n2)c1	-3	6%	-12%	0.2%
CCOC(=O)Cc1csc(NC(=O)Nc2cccc(Cl)c2)n1	0	5%	5%	0.3%
CC1CCN(S(=O)(=O)Cc2ccccc2Cl)CC1	-15	-6%	-17%	-0.1%
CC1C(=O)N2CCCc3cc(NC(=O)C(=O)NCCCc4ccccc4)cc1c32 (centres undefined)	/	-13%	/	-3.0%
Clc1ccc(CSc2ncn[nH]2)cc1	-20	1%	-10%	1.0%
(list continues)
SMILES	GLA inh pH 4.5	Rango release inh	miR-21 reporter	Rango-impB inh
COc1cc(/C=C/[N+](=O)[O-])ccc1OCc1cccc(C(=O)O)c1	3	3%	-32%	?
Cc1nn(C)c(C)c1Nc1ccc(N2C(=O)C3C4C=CC(C4)C3C2=O)cc1[N+](=O)[O-] (centres undefined)	1	14%	-5%	0.6%
CC(=O)c1sc(NC(=O)C2CCN(c3ncnc4sc(C)c(C)c34)CC2)nc1-c1ccccc1	/	-1%	/	-0.7%
Cc1cccc(OCC(=O)N/N=C\c2cn(C)c3ccccc23)c1	-2	4%	30%	0.5%
CCCCN(C)C(=O)C1CCC(=O)N(c2cc(OC)c(OC)c(OC)c2)C1c1ccc(OC)cc1 (centres undefined)	2	0%	-10%	-3.1%
O=C(CN1C(=O)S/C(=C\c2cccs2)C1=O)Nc1ccc(O)c(C(=O)O)c1	/	-1%	-3%	-5.7%
CCOC(=O)N1CCN(S(=O)(=O)c2ccc(F)cc2)CC1	1	2%	-6%	2.0%
COC(=O)c1ccc(N=NNc2cccc(Br)c2)cc1	1	-3%	-58%	0.4%
CC(=O)Nc1ccc(NC(=O)C(C)OC(=O)c2ccc(S(=O)(=O)N3CCCCCC3)cc2)cc1 (centres undefined)	/	20%	/	2.0%
COc1ccc(S(=O)(=O)NN(C)C(=O)c2nn(-c3ccccc3)ccc2=O)cc1	1	34%	0%	0.2%
C/C(=N\NC(=O)CN(c1ccccc1)S(=O)(=O)c1ccccc1[N+](=O)[O-])C(C)(C)C	8	-8%	-12%	-1.3%
O=C(Nc1cccc(-c2cn3ccccc3n2)c1)c1cc2ccccc2oc1=O	0	7%	-49%	5.2%
COc1cccc(OCC(=O)Nc2ccccc2NC(C)=O)c1	?	8%	2%	0.3%
COc1ccc(CNCc2ccncc2)c(OC)c1	/	-16%	3%	-2.6%
O=C(COc1ccc(Br)cc1)N/N=C1\SCC(=O)N1c1ccc(F)cc1	-5	1%	-5%	0.6%
COc1ccccc1NS(=O)(=O)c1cccc(N2CC(O)=C(c3ccccc3)C2=N)c1	7	-18%	-8%	-1.3%
O=C(c1ccccc1)c1ccc(Cn2cc(CCCO)nn2)cc1	/	7%	12%	-2.1%
CCC/C(O)=C1\C(=O)CC(C)(C)CC1=Nc1ccc(OC)cc1	/	1%	8%	-3.0%
O=C(NC12CC3CC(CC(C3)C1)C2)c1ccccc1	8	4%	-15%	0.2%
Cc1c(OCC(=O)NCC(O)c2ccccc2)ccc2c3c(c(=O)oc12)CCCC3 (centres undefined)	/	-2%	-13%	-0.3%
c1cc(-c2cccs2)nc(-c2cccs2)c1	-1	0%	-45%	-0.6%
Cc1sc2ncnc(SCC(=O)NC(C)C(C)C)c2c1C (centres undefined)	8[21.1 µM]	-10%	-2%	-0.4%
Cc1nn(-c2ccccc2)c(N2CCCC2)c1/C=N/Nc1ccc(S(N)(=O)=O)cc1[N+](=O)[O-]	-12	-5%	-12%	2.7%
CCC(C)NCCOc1ccccc1C (centres undefined)	3	-7%	1%	-8.8%
Cc1c(C(=O)COC(C)(C)C)[nH]c2ccccc12	-2	1%	-22%	-3.3%
Further structures:
SMILES	GLA inh pH 4.5	Rango release inh	miR-21 reporter	Rango-impB inh
Cc1cccc(CCNC(=O)C2CCN(S(=O)(=O)c3cccc4nsnc34)CC2)c1	6	-6%	-3%	1.5%
O=C(Nc1ccccc1C(=O)NC(Cc1ccccc1)C(=O)O)c1ccco1 (centres undefined)	/	-10%	-1%	3.2%
Cc1ccc(C)c(NC(=O)C2CC(O)CN2C(=O)Oc2ccccc2)c1 (centres undefined)	/	2%	2%	-1.9%
COc1ccccc1C(=O)Nc1sc2c(c1C(N)=O)CCCC2	/	-5%	-18%	4.6%
CC(=O)NCCNC(=O)c1ccc(Cn2c(=O)[nH]c3ccsc3c2=O)cc1	/	-2%	2%	0.8%
CCOc1ccc(NC(=O)Cn2nnc3c(cnn3-c3ccc(F)cc3)c2=O)cc1	-3	7%	14%	-1.0%
NCc1cccc(-n2cccn2)c1	4	-3%	-6%	0.1%
CC(C)C(=O)N1N=C(c2ccc(NS(C)(=O)=O)cc2)CC1c1cccs1 (centres undefined)	30	2%	-8%	0.2%
COc1ccccc1CNC(=O)CCNC(=O)Cn1ccc2ccccc2c1=O	1	-7%	-9%	0.5%

Compounds from the list above that contain two or more sulfur atoms:
SMILES	GLA inh pH 4.5	Rango release inh	miR-21 reporter	Rango-impB inh
COC(=O)Cn1c(=NC(=O)CSCC(=O)Nc2cc(C)on2)sc2cc(C(=O)OC)ccc21	-7	0%	-1%	?
S=c1sc2c(N3CCN(Cc4ccccc4)CC3)ncnc2n1-c1ccccc1	-3	0%	3%	-0.6%
COCc1nnc(NS(=O)(=O)c2ccc([N+](=O)[O-])cc2)s1	-3	-14%	1%	6.0%
CCN(C1CCCCC1)S(=O)(=O)c1ccc(S(=O)(=O)N(CC(=O)Nc2ccccc2)C2CC2)cc1	1	-7%	-3%	0.4%
O=C(CNC(=S)N(CCCN1CCOCC1)Cc1cccs1)NCc1ccccc1	/	5%	-4%	-4.2%
Cc1cccc(Nc2nc(N)nc(CSC(=S)N3CCOCC3)n2)c1	-3	6%	-12%	0.2%
CC(=O)c1sc(NC(=O)C2CCN(c3ncnc4sc(C)c(C)c34)CC2)nc1-c1ccccc1	/	-1%	/	-0.7%
O=C(CN1C(=O)S/C(=C\c2cccs2)C1=O)Nc1ccc(O)c(C(=O)O)c1	/	-1%	-3%	-5.7%
c1cc(-c2cccs2)nc(-c2cccs2)c1	-1	0%	-45%	-0.6%
Cc1sc2ncnc(SCC(=O)NC(C)C(C)C)c2c1C (centres undefined)	8[21.1 µM]	-10%	-2%	-0.4%
Cc1cccc(CCNC(=O)C2CCN(S(=O)(=O)c3cccc4nsnc34)CC2)c1	6	-6%	-3%	1.5%
CC(C)C(=O)N1N=C(c2ccc(NS(C)(=O)=O)cc2)CC1c1cccs1 (centres undefined)	30	2%	-8%	0.2%

Screening data: PubChem, National Center for Advancing Translational Sciences (NCATS)
